High-throughput results (PubChem BioAssay)
Rango-impB inh – prevents formation of the Rango-importin beta complex; Q14974; Potency, µM (series often up to 92.2 µM), without a hit: at the top dose inhibition of complex formation; Rango CFP/YFP FRET sensor + importin beta, 45 min; 0.031% of 340,000 active; AID 540263; active = rising FRET ratio curve, often small or poorly fitted; inconclusive = mostly compound fluorescence or quenching in the first reads; inactive = flat curves in all reads;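 note: potency is the fitted concentration of half-maximal effect; 0% = DMSO wells and 100% = buffer wells lacking importin beta; nearly all actives have a fitted effect of over 15% in size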
Target sequence (Q14974 whole entry, looked up): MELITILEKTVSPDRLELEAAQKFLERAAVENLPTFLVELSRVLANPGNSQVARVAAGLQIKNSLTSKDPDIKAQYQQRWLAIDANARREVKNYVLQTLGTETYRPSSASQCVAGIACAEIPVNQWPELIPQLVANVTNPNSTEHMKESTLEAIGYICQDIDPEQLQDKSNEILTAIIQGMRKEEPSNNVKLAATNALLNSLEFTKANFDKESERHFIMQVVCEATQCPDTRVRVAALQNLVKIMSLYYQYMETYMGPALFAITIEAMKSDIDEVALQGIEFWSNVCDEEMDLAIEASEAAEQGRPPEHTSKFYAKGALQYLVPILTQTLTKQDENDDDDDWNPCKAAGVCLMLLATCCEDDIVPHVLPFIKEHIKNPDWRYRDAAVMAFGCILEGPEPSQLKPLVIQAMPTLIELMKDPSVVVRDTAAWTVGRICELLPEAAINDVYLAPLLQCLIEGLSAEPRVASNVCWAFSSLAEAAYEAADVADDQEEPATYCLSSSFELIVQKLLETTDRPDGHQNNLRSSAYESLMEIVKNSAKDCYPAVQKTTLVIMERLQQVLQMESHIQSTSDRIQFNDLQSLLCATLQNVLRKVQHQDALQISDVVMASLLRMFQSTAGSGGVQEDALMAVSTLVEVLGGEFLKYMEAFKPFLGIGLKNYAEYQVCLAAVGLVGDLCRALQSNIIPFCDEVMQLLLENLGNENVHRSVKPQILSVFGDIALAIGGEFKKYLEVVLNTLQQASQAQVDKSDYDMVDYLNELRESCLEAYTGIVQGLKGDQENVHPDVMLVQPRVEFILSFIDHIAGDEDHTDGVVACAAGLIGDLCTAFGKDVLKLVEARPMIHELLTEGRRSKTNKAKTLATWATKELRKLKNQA
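FRET biosensor (snurportin 1 IBB flanked by EYFP and cerulean), 50 nM, with compound 5 min, then 0.125 microM importin beta in PBS, 1 mM DTT, 0.02% Tween-20, 0.1% BSA. CFP/YFP ratio read after 45 min at room temperature; pre-read flags interference.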
miR-21 FLuc – miR-21 reporter, rising signal. HeLa miR-21 FLuc reporter, luciferase, 48 h. Potency, µM (highest dose often 38.3 µM), for the others: top-dose reporter change, positive = more light. 340,000 tested, under 10 active. AID 2288; active = well fitted rising curve with a large enough effect; inconclusive = small, poorly fitted or top-dose-only effect; inactive = no such curve, though single readings can be large or run the other way;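 note: % of control where 0% means no effect; miR-21 action dims this reporter so a rising signal means less miR-21 action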
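Using DMEM plus 10% FBS, HeLa miR-21-FLuc cells are incubated with test compounds (final up to about 40uM) for 48 hours; firefly luciferase signal is then imaged following reagent-mediated lysis.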
Rango release inh – inhibition of RanGTP-driven Rango-importin beta dissociation. O95149+P62826. Biochemical FRET Rango-importin beta, RanGTP-induced dissociation. Potency, µM (top dose mostly 46.1 µM), for the others: at the top dose activity change, negative = inhibition. 0.071% of 340,000 active; active means falling FRET ratio curve, often poorly fitted, with flat reads before Ran was added; inconclusive means other falling curves, or compound fluorescence or quenching; inactive means flat or rising ratio curve;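 note: potency is the fitted concentration of half-maximal effect; % of control where 0% means no effect; nearly all actives have a fitted effect of over 45% in size; -100% = wells without RanGTP and RCC1; the record marks most hits as doubtful in a second field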
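Recombinant Rango FRET biosensor (EYFP–snurportin 1 IBB–cerulean CFP10) at 0.1 uM premixed with 0.25 uM importin beta in PBS, 1 mM DTT, 0.02% Tween-20, 0.1% BSA. Compound added 5 min; RanGTP-RCC1 (0.6 uM Ran, 2 mM GTP, 0.2 uM RCC1) then triggers release, read at 45 min.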
GLA inh pH 4.5 – alpha-galactosidase A (human) inhibition, pH 4.5 | purified enzyme, 4-MU-alpha-Gal fluorescence, pH 4.5 | 230,000 tested, under 10 active | activity change, negative = inhibition, % at 105 µM | P06280; inconclusive = small, poorly fitted or top-dose-only inhibition, or a rising curve; inactive = flat fitted curve, though single readings scatter; no compound was filed as active;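 note: 0% = full activity with enzyme and -100% = basal without enzyme; dose as in the result columns while the protocol names 77 µM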
Active calls of the source: *; ? = inconclusive; · = not tested or not shown; [ ] = dose if it differs, or a comment.

Rango-impB inh	miR-21 FLuc	Rango release inh	GLA inh pH 4.5	Compound
-0.1%	-4%	0%	9	O=C(COc1ncnc2sccc12)NC1CCCc2ccccc21 (stereo not given)
-2.2%	·	-9%	·	Cc1c(NC(=O)CN2C(=O)NC(C)(c3ccc(OC(F)F)cc3)C2=O)c(=O)n(-c2ccccc2)n1C (stereo not given)
1.7%	-21%	0%	-7	O=C(Nc1ccccc1F)NC1CC1
0.0%	-1%	7%	·	O=C(CCCCCCCC(=O)c1ccccc1)c1ccccc1
2.1%	-7%	-7%	-7	COc1ccc(C)cc1NC(=O)c1ccoc1C
-0.1%	-60%	12%	·	O=C(N/N=C/c1ccncc1)c1cccs1
5.3%	-1%	14%	5[21.1 µM]	O=C(CCNS(=O)(=O)c1ccc(Br)s1)NCc1ccc(F)cc1
1.7%	0%	20%	-3	O=C(COC(=O)c1ccc[nH]c1=O)NCCc1ccc(F)cc1
2.1%	-45%	0%	1	O=C(/C=C/c1c(Cl)cccc1Cl)NCc1ccco1
0.0%	-2%	-15%	8	Nc1n[nH]c(C2CCCCC2)n1
?	13%	?	8	CCc1c(C)c(C#N)c2nc3ccccc3n2c1NCc1ccco1
-2.7%	1%	-14%	-1	CCn1c(=O)cc(SCC(=O)Nc2cc(OC)c(OC)c(OC)c2)c2ccccc21

Rango-impB inh	miR-21 FLuc	Rango release inh	GLA inh pH 4.5	Compound
-1.8%	0%	2%	-3	CC1=C(C#N)C(NC(=O)C2CCCCC2)(C(F)(F)F)C(=O)N1 (stereo not given)
?	-18%	?	-12	COc1ccc(/C=C2/CCCC(C(=O)C(F)(F)F)=C2O)cc1OC
-0.2%	4%	-12%	·	COc1ccc(-c2nc(N3CCN(C)CC3)sc2-c2ccc(OC)cc2)cc1
2.7%	13%	7%	·	Cc1cc(C)cc(NC(=O)CNC(c2ccccc2)c2ccccc2)c1
4.2%	-1%	-23%	9	NC(=O)c1cnn(C2CCS(=O)(=O)C2)c1 (stereo not given)
1.9%	-14%	31%	9	COc1ccc(C(=O)Nc2ccc(NC(=O)c3cccs3)c(OC)c2)cc1Cl
-4.9%	-36%	-4%	-3	Cc1ccc(C(=O)O)cc1NC(=S)NC(=O)c1ccc(-c2ccccc2)cc1
-0.8%	·	8%	·	CC(=O)NCCc1ccc(C(=O)COC(=O)c2cccn2C)cc1
-0.9%	16%	-6%	-5	O=C(CSc1nnc(-c2cccs2)n1-c1ccccc1)N1CCCc2ccccc21
?	1%	0%	-1	CC(=O)NC1=NN(C(C)=O)C(C)(CS(=O)(=O)c2ccc3ccccc3c2)S1 (stereo not given)
0.1%	0%	-4%	·	CC(=O)c1ccc(OCc2cc(C(=O)N(C)Cc3ncc(C)[nH]3)no2)cc1
-3.2%	1%	0%	7[21.1 µM]	CC(C)c1onc(C(=O)NCc2cccs2)c1[N+](=O)[O-]

Rango-impB inh	miR-21 FLuc	Rango release inh	GLA inh pH 4.5	Compound
1.5%	-5%	-3%	7	O=c1[nH]ncn1-c1ccc(Br)cc1
-1.0%	-3%	0%	-2	COC(=O)CCN(C(=O)c1cc(OC)c(OC)c(OC)c1)c1ccccn1
5.1%	4%	12%	2	C=CCNC(=S)Nc1cccc(N)c1
-8.3%	·	-24%	·	COc1ccc(NC(C)=O)cc1S(=O)(=O)N1CCn2cccc2C1C (stereo not given)
0.3%	-2%	-10%	-9	COC(=O)Cc1[nH]nc2c1C(C1C=CCCC1)C(C#N)=C(N)O2 (stereo not given)
-0.9%	6%	-3%	·	CSc1cccc(NS(=O)(=O)c2ccc(-c3coc(C)n3)cc2)c1
4.2%	-7%	2%	11	CCN1CCN(CCCNC(=O)c2csc3c2CCCCC3)CC1
3.0%	5%	11%	·	CCN(CC(=O)NCc1cccs1)C(=O)c1ccc(S(=O)(=O)Nc2cccc(C)c2C)cc1
0.1%	-11%	5%	-8	O=C(CCN1C(=O)S/C(=C\c2cccs2)C1=O)NC1=NCCS1
-1.0%	3%	6%	5	Cc1cccc(CCNC(=O)C2CCCN(S(=O)(=O)c3cccc4nsnc34)C2)c1 (stereo not given)
2.7%	·	-5%	·	CCOC(=O)C1=C(C)NC(C)=C(C(=O)OCC)C1C(=O)OCC(=O)N1CC(C)OC(C)C1 (stereo not given)
-1.7%	-2%	1%	·	COc1ccc(NC(=O)c2cccc(N3C(=O)C4C5C=CC(C5)C4C3=O)c2)c(OC)c1 (stereo not given)

Rango-impB inh	miR-21 FLuc	Rango release inh	GLA inh pH 4.5	Compound
?	-7%	-22%	·	N=C1/C(=C\c2ccc(OC(=O)c3ccccc3)cc2)C(=O)N=C2SC(N3CCOCC3)=NN12
4.8%	-5%	4%	-10	CCNC(=O)C(C)Sc1ccc(Cl)cc1 (stereo not given)
-1.6%	-6%	14%	·	COc1cccc(NC(=O)CN(C)C(=O)c2ccc(-c3ccccc3Cl)o2)c1
?	-48%	-21%	·	Cc1ccc(NC(=O)CSc2nc3ccccc3nc2N2CCCC2)cc1
1.5%	0%	?	·	CCC1=Nc2cc(C(=O)N3CCCCC3)ccc2Sc2ccc(C)cc21
4.1%	-7%	0%	-12	Cc1nn(-c2ccccc2)c2c1C(=O)N(Cc1ccccc1)C(=O)C(C)(C)C2
?	-73%	30%	·	Cn1ccsc1=NC(=O)c1ccc(S(=O)(=O)C(F)F)cc1
0.5%	-2%	-1%	0	O=C(CC(=O)c1ccccc1)Nc1cc(C(F)(F)F)ccc1Cl
1.9%	4%	2%	6	Nc1cc(=O)[nH]n1C1CCCC1
0.4%	-7%	-5%	-1	CC(C)CC(C(=O)OCC(=O)c1c(N)n(C)c(=O)n(C)c1=O)N1C(=O)c2ccccc2C1=O (stereo not given)
-1.0%	-2%	10%	2	Cc1n[nH]c(C)c1S(=O)(=O)N1CCCCCC1
0.3%	-5%	-3%	·	Cc1cc(C)c(S(=O)(=O)NC2CC(C)(C)NC(C)(C)C2)cc1Br

Rango-impB inh	miR-21 FLuc	Rango release inh	GLA inh pH 4.5	Compound
3.0%	-1%	17%	·	CCOC(=O)c1cc(S(=O)(=O)NCCc2ccccc2)cn1C
-0.2%	-3%	-9%	-3	O=C(Nc1n[nH]c(C(F)(F)F)n1)C1CC1
-2.4%	0%	-2%	-16	CCCC(C(=O)O)n1c(O)c(C=C2N=c3ccccc3=N2)sc1=S (stereo not given)
-0.1%	0%	11%	-1	Cc1ccc(S(N)(=O)=O)cc1NC(=O)/C=C/c1cccs1
1.8%	·	-7%	·	Cc1ccc2sc(N(CCCN(C)C)C(=O)c3ccc(S(=O)(=O)N4CCc5ccccc5C4)cc3)nc2c1C
-5.7%	·	7%	·	CCCCn1c(N)c(N(CCOC)C(=O)c2ccc3c(c2)OCCO3)c(=O)[nH]c1=O
2.3%	·	-7%	·	Cc1ccc(NC(=O)CC2OC(=O)c3ccccc32)cc1S(=O)(=O)N1CCOCC1 (stereo not given)
-1.6%	·	6%	·	C[C@H](CO)N1C[C@H](C)[C@@H](CN(C)S(C)(=O)=O)Oc2ccc(NC(=O)Nc3ccccc3)cc2C1=O
2.7%	-10%	-3%	·	CCN(CC)c1nc2c(c(=O)[nH]c(=O)n2C)n1Cc1ccccc1
-3.1%	-46%	-8%	5	Cn1nccc1C(=O)Nc1ccc2c(c1)OCCO2
1.5%	-5%	-6%	8	COc1ccc(C(=O)NNC2=NC(C)(C)Cc3ccccc32)cc1
3.5%	0%	-12%	·	CC1(C)Cc2c(sc(NC(=O)COc3ccc(Cl)cc3)c2C(N)=O)C(C)(C)N1

20 successive records from above, quoted:
Rango-impB inh	miR-21 FLuc	Rango release inh	GLA inh pH 4.5	Compound
4.8%	-5%	4%	-10	CCNC(=O)C(C)Sc1ccc(Cl)cc1 (stereo not given)
-1.6%	-6%	14%	·	COc1cccc(NC(=O)CN(C)C(=O)c2ccc(-c3ccccc3Cl)o2)c1
?	-48%	-21%	·	Cc1ccc(NC(=O)CSc2nc3ccccc3nc2N2CCCC2)cc1
1.5%	0%	?	·	CCC1=Nc2cc(C(=O)N3CCCCC3)ccc2Sc2ccc(C)cc21
4.1%	-7%	0%	-12	Cc1nn(-c2ccccc2)c2c1C(=O)N(Cc1ccccc1)C(=O)C(C)(C)C2
?	-73%	30%	·	Cn1ccsc1=NC(=O)c1ccc(S(=O)(=O)C(F)F)cc1
0.5%	-2%	-1%	0	O=C(CC(=O)c1ccccc1)Nc1cc(C(F)(F)F)ccc1Cl
1.9%	4%	2%	6	Nc1cc(=O)[nH]n1C1CCCC1
0.4%	-7%	-5%	-1	CC(C)CC(C(=O)OCC(=O)c1c(N)n(C)c(=O)n(C)c1=O)N1C(=O)c2ccccc2C1=O (stereo not given)
-1.0%	-2%	10%	2	Cc1n[nH]c(C)c1S(=O)(=O)N1CCCCCC1
0.3%	-5%	-3%	·	Cc1cc(C)c(S(=O)(=O)NC2CC(C)(C)NC(C)(C)C2)cc1Br
3.0%	-1%	17%	·	CCOC(=O)c1cc(S(=O)(=O)NCCc2ccccc2)cn1C
-0.2%	-3%	-9%	-3	O=C(Nc1n[nH]c(C(F)(F)F)n1)C1CC1
-2.4%	0%	-2%	-16	CCCC(C(=O)O)n1c(O)c(C=C2N=c3ccccc3=N2)sc1=S (stereo not given)
-0.1%	0%	11%	-1	Cc1ccc(S(N)(=O)=O)cc1NC(=O)/C=C/c1cccs1
1.8%	·	-7%	·	Cc1ccc2sc(N(CCCN(C)C)C(=O)c3ccc(S(=O)(=O)N4CCc5ccccc5C4)cc3)nc2c1C
-5.7%	·	7%	·	CCCCn1c(N)c(N(CCOC)C(=O)c2ccc3c(c2)OCCO3)c(=O)[nH]c1=O
2.3%	·	-7%	·	Cc1ccc(NC(=O)CC2OC(=O)c3ccccc32)cc1S(=O)(=O)N1CCOCC1 (stereo not given)
-1.6%	·	6%	·	C[C@H](CO)N1C[C@H](C)[C@@H](CN(C)S(C)(=O)=O)Oc2ccc(NC(=O)Nc3ccccc3)cc2C1=O
2.7%	-10%	-3%	·	CCN(CC)c1nc2c(c(=O)[nH]c(=O)n2C)n1Cc1ccccc1

Other entries.
Rango-impB inh	miR-21 FLuc	Rango release inh	GLA inh pH 4.5	Compound
-0.6%	11%	0%	10	O=[N+]([O-])c1cc(/C=N/n2c(-c3cccnc3)n[nH]c2=S)ccc1Cl
-1.3%	2%	10%	·	Cc1ccc(-c2nc(CS(=O)CC(=O)NCc3ccc4c(c3)OCO4)c(C)o2)cc1 (stereo not given)
6.8%	-22%	9%	-5	O=C(CCNC(=O)c1ccccc1Cl)Nc1nc(-c2ccccc2Cl)cs1
1.6%	4%	27%	·	COc1ccccc1OCCn1ccnc1
·	-1%	·	0	Cn1c(=O)c2c3c(sc2n2c(SCC(=O)c4ccccc4)nnc12)COC(C)(C)C3
0.4%	·	16%	·	O=C(CNC(=O)c1ccc(Cl)cc1Cl)OCN1C(=O)c2ccccc2C1=O
1.9%	25%	29%	-3	CCCCn1cnc2c(c(-c3ccccc3)c(-c3ccccc3)n2Cc2ccco2)c1=N
1.1%	1%	-12%	6	Cc1csc(SCc2nc3scc(-c4ccccc4)c3c(=O)[nH]2)n1
-2.6%	-2%	25%	·	COCCN1C(=O)C(=O)/C(=C(/O)c2ccc(S(=O)(=O)N3CCOCC3)cc2)C1c1ccc(OC)c(OC)c1 (stereo not given)
1.2%	·	-7%	-13	C[C@@]12CCC=C[C@H]1[C@H](c1ccccc1Br)N(Cc1ccccc1)C2=O
-4.6%	0%	11%	·	O=C(O)/C(=C/c1ccco1)NC(=O)c1ccc(Br)o1
3.2%	-19%	-12%	2	Cc1ccccc1CNc1nc(N)n(-c2ccccc2)n1
-6.3%	-8%	-3%	0	CCOc1cc(/C=N\NC(=O)c2ccc(NC(=O)C(C)(C)C)cc2)ccc1OC(=O)c1ccc(C)cc1

A portion of the library; rates above refer to the full screens.
